Source: PubChem BioAssay (National Center for Advancing Translational Sciences (NCATS))
KAT2A inh – qHTS Assay for Inhibitors of GCN5L2; Potency, µM (titrated, usually from 58.9 µM), for inactives: at the highest dose activity change, negative = inhibition, most hits filed as inhibitors; hit rate 0.21% among 390,000; Histone acetyltransferase KAT2A (Homo sapiens), Q92830; GCN5L2 HAT assay, ThioGlo1 CoA-SH fluorescence; active = well fitted inhibition curve with a large enough effect; inconclusive = small, poorly fitted or top-dose-only effect, or another doubt; inactive = no such curve, though single readings can be large or run the other way
Target sequence (Q92830 whole entry, looked up): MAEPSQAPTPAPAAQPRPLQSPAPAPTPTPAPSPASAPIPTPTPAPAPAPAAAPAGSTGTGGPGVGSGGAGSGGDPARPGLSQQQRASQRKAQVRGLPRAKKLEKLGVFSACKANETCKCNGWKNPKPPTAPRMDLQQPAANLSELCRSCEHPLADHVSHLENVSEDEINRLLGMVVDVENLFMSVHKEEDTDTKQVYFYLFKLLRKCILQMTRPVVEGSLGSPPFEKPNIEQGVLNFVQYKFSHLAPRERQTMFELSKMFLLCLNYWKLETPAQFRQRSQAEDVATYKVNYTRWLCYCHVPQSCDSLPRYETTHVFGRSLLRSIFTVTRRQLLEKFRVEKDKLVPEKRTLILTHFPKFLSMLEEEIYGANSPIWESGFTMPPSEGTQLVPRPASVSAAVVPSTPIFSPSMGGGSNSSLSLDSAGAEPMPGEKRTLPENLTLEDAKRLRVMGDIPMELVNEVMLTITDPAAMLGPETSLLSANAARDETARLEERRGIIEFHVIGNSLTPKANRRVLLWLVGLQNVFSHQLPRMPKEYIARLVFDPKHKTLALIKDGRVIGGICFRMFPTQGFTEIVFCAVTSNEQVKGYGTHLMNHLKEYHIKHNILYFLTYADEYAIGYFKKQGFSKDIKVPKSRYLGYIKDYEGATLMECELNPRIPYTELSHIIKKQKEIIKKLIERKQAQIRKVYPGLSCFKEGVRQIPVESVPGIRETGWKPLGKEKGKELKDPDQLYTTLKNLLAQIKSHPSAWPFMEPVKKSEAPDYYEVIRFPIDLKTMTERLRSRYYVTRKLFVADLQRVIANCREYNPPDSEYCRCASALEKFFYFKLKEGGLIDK
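GCN5L2 (20 nM) in 50mM HEPES pH 7.5, 0.1mM EDTA, 0.01% Tween-20 preincubated 15 min with compounds at room temperature. Reaction started with H3(1-25) 75uM, acetyl-CoA 70uM, ThioGlo1 50uM; CoA-thiol fluorescence (Ex340/Em540) read at 0 and 20 min.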
An asterisk follows results filed as active; ? = inconclusive; [ ] = another dose, or the depositor's remark. % is scaled to controls: 0 for no effect and ±100 for the full control effect; potency is read from the fitted curve at half-maximal effect.

structure | KAT2A inh
O=C(Cn1c(=O)n(Cc2ccc3c(c2)OCO3)c(=O)c2ccccc21)Nc1cccc(Cl)c1 | 0.5%
Cc1cc(NC(=O)CCC(=O)N(c2ccccc2)C(C(=O)NC2CCCCC2)c2cccs2)no1 (centres undefined) | -0.1%
NC(=O)c1ccc(NC(=O)c2cccc3c2OCCCO3)cc1 | -2.7%
CCOC(=O)C1=C(COC(=O)COc2ccc(Br)cc2)NC(=O)NC1C (centres undefined) | -11.5%
COC(=O)c1cc(C)sc1NC(=O)CN1CCN(C(=O)c2ccco2)CC1 | 0.5%
CCN(CC(=O)Nc1ccc(OC(F)F)cc1)C1CCCCC1 | -9.8%
COc1cccc(OC)c1C(=O)Nc1cccc(S(=O)(=O)Nc2ccccc2Cl)c1 | -8.9%
CCOc1cccc(C(=O)Nc2ccc(S(=O)(=O)Nc3cc(C)on3)cc2)c1 | -1.8%
COc1cc2[nH]c(=S)n(CC3CCCO3)c(=O)c2cc1OC (centres undefined) | -4.6%
O=S(=O)(c1ccccc1)N(CC1CO1)c1cc(Cl)ccc1Cl (centres undefined) | -1.0%
Cc1ccc([C@H]2C(C(=O)O)=CC[C@@H](c3ccc(Cl)cc3)N2S(=O)(=O)c2ccccc2C)cc1 | ?
CCOc1ccc2c(c1)c(=O)c(S(=O)(=O)c1ccc(C)cc1)cn2CC(=O)Nc1ccc(C)cc1 | -4.8%
Cc1ccc(-c2noc(C3CCN(S(C)(=O)=O)CC3)n2)o1 | 0.7%
CCOc1ccc(S(=O)(=O)N2CCN(C(=O)c3ccccc3Cc3ccccc3)CC2)cc1 | -6.3%
CN(C)S(=O)(=O)c1ccc(Cl)c(NC(=O)C2CCN(S(=O)(=O)c3cccs3)CC2)c1 | -1.7%
Cc1c(NC(=O)C23CC4CC(CC(C4)C2)C3)c(=O)n(-c2ccccc2)n1C | 1.8%
CC(C)C(=O)Nc1ccc(S(=O)(=O)Nc2nccc(/C=C/c3ccccc3)n2)cc1 | 0.6%
Cc1ccccc1-n1nc(CO)c(C(=O)NCc2cccs2)n1 | 2.2%
CCOc1ccc(NC(=O)CN(C)S(=O)(=O)c2ccc3c(c2)CCC(=O)N3)cc1 | -2.7%
C=CCOc1ccc(/C=C/C(=O)OCC(=O)NCCc2ccccc2)cc1 | -1.9%
O=C(NCC(c1cccs1)N1CCOCC1)c1cn(-c2ccccc2)nc1-c1ccc(F)cc1 (centres undefined) | -5.2%
CC1CCCC(=NNC(=O)C2COc3ccccc3O2)C1 (centres undefined) | 1.7%
Cc1ccc(CCNC(=O)C2CCN(C(=O)N(C)C)CC2)cc1 | 0.0%
Cc1ccc(NC(=O)c2ccc(-n3cccn3)c([N+](=O)[O-])c2)cc1C | 12.6%
O=C(NNC(=S)NCC1CCCO1)c1cccc(S(=O)(=O)N2CCOCC2)c1 (centres undefined) | -5.4%
CCOC(=O)c1sc(NC(=O)c2ccncc2)nc1C | -15.3%
CCN(C(=O)CSc1nnnn1-c1ccccc1OC)C1CCS(=O)(=O)C1 (centres undefined) | -10.4%
Cc1ccc(NC(=O)CCSc2nnc(-c3ccco3)o2)cc1 | -14.5%
Cc1oc(-c2ccccc2F)nc1CS(=O)CC(=O)NCc1ccccc1 (centres undefined) | 1.5%
COc1ccc(C)cc1NC(=O)c1ccc2c(c1)C(=O)N(Cc1ccncc1)C2=O | -3.7%
O=C(COC(=O)Cc1ccccc1F)Nc1ccc2c(c1)OCO2 | 0.9%
CC1=C(C(=O)OCC2CCCO2)C(c2coc3ccc(C)cc3c2=O)C2=C(CCCC2=O)N1 (centres undefined) | -6.6%
COc1ccc(NC(=O)CSc2nncn2C)cc1OC | 2.3%
CC(NC(=O)c1ccc(F)cc1)c1nc2ccccc2[nH]1 (centres undefined) | 2.7%
Cc1ccc(C)c(Cn2c(=O)n(CCCC(=O)NCCc3ccc(Cl)cc3)c(=O)c3ccccc32)c1 | 0.8%
COc1cc2c(cc1N/C=C(\C#N)c1nc(-c3ccccc3)cs1)oc1ccccc12 | -6.1%
CC(=O)c1c(C)[nH]c(C(=O)N2CCc3ccccc32)c1C | -15.3%
CCN1CCN(c2oc(/C=C/c3cc(OC)c(OC)c(OC)c3)nc2C#N)CC1 | -7.9%
Cc1ccc2cc3c(nc2c1)N(c1ccccc1)CC3 | -7.4%
O=C(CN1CCN(S(=O)(=O)c2ccccc2)CC1)Nc1ccc2c(c1)OCO2 | -5.1%
COc1ccc(CCNC(=O)CCCn2ncn3c(cc4occc43)c2=O)c(OC)c1 | -0.8%
CC(CN1CCCC(C(N)=O)C1)c1ccccc1 (centres undefined) | -9.2%
COc1ccccc1OCCOC(=O)Nc1ccccc1 | -8.3%
Cn1nccc1C(=O)N1CCN(c2cccc(C(F)(F)F)c2)CC1 | -2.4%
COC(=O)C(CC(C)C)NC(=O)/C=C/c1ccccc1Cl (centres undefined) | 2.3%
COc1ccc(C(=O)NC2CCN(C(=O)Nc3ccc(F)cc3)CC2)cc1 | -5.0%
O=C(/C=C/c1cccc(Oc2ccccc2)c1)N1CCOCC1 | 1.4%
CCOc1cc(C(=O)NC(C)CC)cc(OCC)c1OCC (centres undefined) | -2.3%
O=C(Nc1nonc1-c1ccc(F)cc1)c1ccco1 | -7.0%
CC(C)CNc1c(N)c(=O)oc2ccccc12 | -3.5%
NCCCCC(N)C(=O)NC(Cc1ccc(O)cc1)C(=O)NC(CCCCN)C(=O)O (centres undefined) | -3.7%
COc1ccccc1OCc1ccc(C(=O)NCc2cccnc2)o1 | -9.2%
Cc1cc[n+](CC(=O)N2CCCc3ccccc32)cc1 | -4.1%
COc1ccc(S(=O)(=O)N(C)CC(=O)NCCC2=CCCCC2)cc1 | -3.6%
Cc1ccnc(SCC(=O)NC2CCCCCC2)n1 | ?
Cc1ccc(CNC(=O)CSc2nnc3n2CCCCC3)cc1 | -6.3%
CCN(c1ccccc1)S(=O)(=O)c1c[nH]c2ccc([N+](=O)[O-])cc12 | -11.3%
CCOC(=O)c1ccc(NNC(C)=O)c([N+](=O)[O-])c1 | -6.9%
COc1ccc(-c2cc(C3CCN(c4ncccc4[N+](=O)[O-])CC3)[nH]n2)cc1 | -8.4%
CSc1nc(-c2ccco2)cc(-c2ccccc2)c1C#N | -7.7%

Carrying on.
structure | KAT2A inh
CC(C)c1ccc(NC2CCCN(C(=O)c3ccncc3)C2)cc1 (centres undefined) | -2.4%
COc1ccccc1OCC(=O)NCCS(=O)(=O)N1CCN(c2ccccc2OC)CC1 | 0.2%
COc1ccccc1NC(=O)C(=O)NCCc1csc(-c2cccc(F)c2)n1 | -0.4%
Fc1ccc(NC(=S)Nc2cccnc2)cc1 | 3.3%
O=C(O)c1cc(Br)ccc1NN=C1CCCCC1 | -14.6%
CCCCc1cc(=O)oc2cc(C)cc(OCC(=O)NCCN3CCOCC3)c12 | -4.5%
CC(=O)Nc1ccc(S(=O)(=O)N2CCN(C3CCCCCCC3)CC2)cc1 | 0.2%
Cc1ccc(-n2nnc(-c3ccnc4ccccc34)n2)cc1 | -3.3%
CN(C(=O)c1ccc2c(c1)SC1=NS(=O)(=O)CCN12)C(c1ccccc1)c1ccccc1 | -6.6%
COC(=O)c1ccc(NC(=O)CSc2ccc(-c3ccccn3)nn2)cc1 | 1.2%
O=C(NCc1ccccc1F)C1CCCN1S(=O)(=O)c1ccc(Cl)cc1 (centres undefined) | -1.4%
O=C(N/N=C\C1CC=CCC1)c1ccc(Br)o1 (centres undefined) | -16.7%
N#CC1CCN(C(=O)c2ccc3c(Cl)c4c(nc3c2)CCCC4)CC1 | -1.5%
CCOC(=O)CN1C(=O)C(O)(CC(=O)c2ccc3c(c2)CCCC3)c2ccccc21 (centres undefined) | -0.2%
CC1=C(C(=O)OCc2ccc3c(c2)OCO3)C(c2ccccc2)NC(=O)N1 (centres undefined) | -6.7%
NC(=NCc1ccccc1)c1cccc([N+](=O)[O-])c1 | -5.0%
Cc1ccc(CNC(=O)c2nn(C)c(C)c2[N+](=O)[O-])cc1 | -3.7%
O=C(c1ccc(F)cc1)N1CCCCC(Sc2nnnn2-c2ccccc2)C1=O (centres undefined) | -17.2%
CC(=O)N1CCN(c2ccc([N+](=O)[O-])c(NCC3CCCO3)c2)CC1 (centres undefined) | -10.6%
Cc1ccccc1N1CC(C(=O)Nc2nnc(SCCN3CCOCC3)s2)CC1=O (centres undefined) | ?
O=C(CCNC(=O)c1ccccc1)Nc1ccc(S(=O)(=O)Nc2ncccn2)cc1 | -1.7%
Cc1ccc(C(=O)N2CCN(S(=O)(=O)c3ccc(C)c([N+](=O)[O-])c3)C2)cc1 | 3.2%
Cc1ccc(C(=O)OCC(=O)NC(C)C2CC3CCC2C3)cc1N (centres undefined) | 1.1%
COc1cccc(C(=O)Nc2cccc(NC(=O)c3cccs3)c2)c1 | -5.7%
Cc1ccc(C)c(OCCC(=O)OCc2csc(CC(=O)Nc3ccccc3C)n2)c1 | -8.6%
Cc1ccccc1-c1ccnc2c(-c3ccc(F)cc3)c(C)nn12 | -16.2%
CC(=O)Oc1ccc(-n2c(=O)c3ccccc3c3ccccc3c2=O)cc1 | -4.7%
Cc1sc(-c2ccncc2)nc1OC(=O)c1cc(Cl)cc(Cl)c1 | 11.8%
Cc1cccc(C)c1NC(=O)Cn1nc(-c2ccccc2)nc1-c1ccccc1 | 0.7%
CCN1CCN(C(=O)CCCCCn2c(=O)[nH]c3cc(C(=O)OC)ccc3c2=O)CC1 | -1.6%[0.501 µM]
CC(C)C(NC(=O)c1ccccc1F)C(=O)NCc1ccc(S(=O)(=O)N2CCOCC2)cc1 (centres undefined) | -27.9%
Cc1cc(NC(=O)CCC(=O)N(CC(=O)NCC2CCCO2)c2cccc(F)c2)no1 (centres undefined) | -3.8%
Cc1ccc(C)c(Cn2c(=O)n(CC3CCC(C(=O)N4CCOCC4)CC3)c(=O)c3sccc32)c1 (centres undefined) | -2.2%
COc1cc(/C=C/C(=O)OCC(=O)NCCC2=CCCCC2)ccc1O | 2.0%
O=C(CN1CCSC1=NCc1ccccc1)c1ccc(Cl)cc1 | 43.0%
CCc1cc2cccc(C)c2nc1SCC(=O)c1ccc(NC(C)=O)cc1 | 3.3%
CN1CCN(c2ccc(Cl)cc2NC(=O)/C=C/c2cccc(F)c2)CC1 | -7.2%
CCCOc1ccc(C(=O)Nc2ccc(S(=O)(=O)Nc3cc(C)nc(C)n3)cc2)cc1 | -2.2%
CCOc1ccc2ncc3c(-c4cccc(OC)c4)nn(-c4ccccc4)c3c2c1 | -10.7%
CCNc1ccc(C(=O)OCC(=O)NCc2ccc(C)cc2)cc1[N+](=O)[O-] | 19.0%
Cc1ccc(NC(=O)CN2C(=O)N/C(=C\c3ccco3)C2=O)cc1 | -8.6%
CCOc1ccccc1CN1CCN(Cc2nc3c(s2)CCCC3)CC1CCO (centres undefined) | 6.6%
CCOC(=O)C1(Nc2nccs2)Sc2ccccc2NC1=O (centres undefined) | -2.8%
COc1cc(/C=C2/C(=O)N=C(N)N2C)cc(OC)c1OC | -9.3%
O=C(NCc1ccco1)c1cc2ccccc2o1 | 0.5%
CCCN(CC(=O)Nc1ccccc1OC)C(=O)c1ccc2c(c1)NC(=O)C(C)S2 (centres undefined) | -1.1%
Cc1ccc2nc(SCC(=O)Nc3ccc(F)c([N+](=O)[O-])c3)[nH]c2c1 | -7.8%
COc1ccccc1C(=O)NCC(=O)N/N=C(\C)Cc1ccccc1 | -5.5%
Cc1ccc2c(c1)cc1c(=O)n(CC(=O)NCCCc3ccccc3)nc(C)n12 | -4.4%
CC(Oc1cc2oc(=O)c3c(c2cc1Cl)CCC3)C(=O)NCCCN1CCCC1=O (centres undefined) | -8.5%
N#Cc1cn(Cc2cccc(Cl)c2)c2ccccc12 | -13.0%
COCCNC(=O)c1ccc2c(=O)n(CCOC)c(=O)[nH]c2c1 | -1.8%
COc1ccc(NC(=O)Nc2ncn(Cc3cccc(C(F)(F)F)c3)n2)cc1OC | -3.7%
Cc1ccc(S(=O)(=O)NCCN(CCNS(=O)(=O)c2ccc(C)cc2)S(C)(=O)=O)cc1 | -0.9%
CCS(=O)(=O)N1CCN(S(=O)(=O)c2ccc(F)cc2)CC1 | 1.3%
CCC(CC)C(=O)Nc1cc(C)c2c(=O)oc3ccccc3c2n1 | -11.6%
CCc1ccc(NC(=S)NC2CC3CCCC(C2)N3Cc2ccccc2)cc1 (centres undefined) | -4.4%
CCOc1cccc2cc(C(=O)N3CCN(C/C=C/c4ccccc4)CC3)c(=O)oc12 | -4.1%
CN(C)CCCN(C(=O)c1ccc(S(=O)(=O)N2CCc3ccccc32)cc1)c1nc2ccc(Cl)cc2s1 | -4.4%
CC1(C)OC(=O)C(=NNc2ccc(C(=O)O)cc2)C(=O)O1 | -15.5%
O=C(Nn1c(-c2ccc(F)cc2)nc2ccccc2c1=O)C1CCCCC1 | 2.7%
CN(C)c1cc[n+](Cc2c(Cl)cccc2Cl)cc1 | -1.2%

The list is partial; most or all hits stand in other tables.
